# UUG fidelity: modulators of start codon recognition fidelity in yeast. S. cerevisiae UUG-firefly luciferase reporter, luminescence/redox ratio. activity score, % at 18.7 µM. 350,000 compounds, 0.13% hits;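 active = replicate mean at a twofold rise or more, about +100% in these data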;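 note: firefly luciferase made from a UUG start codon reports start codon fidelity; reporter light over untreated wells divided by growth signal over untreated wells; some hits fall short of that in this replicate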
# eIF4H inh: inhibitors of RNA binding by human eIF4H. AID 2012. 290,000 compounds, 0.94% hits. eIF4H fluorescence polarization binding assay. inhibition, % at 35 µM;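 active = 50% or more with normal probe brightness, or confirmed in later tests; inconclusive = above 50% with abnormal brightness, or retests that disagree; inactive = below 50% or failed in later tests; about a fifth of its hits are not listed in these tables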;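 note: calls also rest on retests at 20 µM and on dose response follow-up; 0% = protein and probe with vehicle and 100% = probe without protein; strong numbers were not always called active; many hits fall short of the cut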
# CSC inhib: cancer stem cell inhibition | inhibition, % at 7.5 µM | 300,000 compounds, 1.1% hits | cancer stem cell-like cells viability, luminescence;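 active = mean at 75% or more and at least half the replicates too; inconclusive = mean and replicates disagree; tested in HMLE shEcad cells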;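 note: 0% = median of negative and 100% = median of positive control wells; the first replicate is given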
# PABP FP inh: PABP-poly(A) binding inhibition | P11940 | PABP-poly(A) RNA binding, fluorescence polarization | inhibition, % at 35 µM | 290,000 compounds, 1% hits;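 active = 50% or more with normal probe brightness, or confirmed in later tests; inconclusive = above 50% with abnormal brightness, or retests that disagree; inactive = below 50% or failed in later tests; about a fifth of its hits are not listed in these tables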;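 note: calls also rest on retests at 20 µM and on dose response follow-up; controls were probe without protein and protein plus probe with vehicle; some compounds called inactive have numbers as strong as hits; many hits fall short of the cut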
# Target sequence (P11940 whole entry, looked up): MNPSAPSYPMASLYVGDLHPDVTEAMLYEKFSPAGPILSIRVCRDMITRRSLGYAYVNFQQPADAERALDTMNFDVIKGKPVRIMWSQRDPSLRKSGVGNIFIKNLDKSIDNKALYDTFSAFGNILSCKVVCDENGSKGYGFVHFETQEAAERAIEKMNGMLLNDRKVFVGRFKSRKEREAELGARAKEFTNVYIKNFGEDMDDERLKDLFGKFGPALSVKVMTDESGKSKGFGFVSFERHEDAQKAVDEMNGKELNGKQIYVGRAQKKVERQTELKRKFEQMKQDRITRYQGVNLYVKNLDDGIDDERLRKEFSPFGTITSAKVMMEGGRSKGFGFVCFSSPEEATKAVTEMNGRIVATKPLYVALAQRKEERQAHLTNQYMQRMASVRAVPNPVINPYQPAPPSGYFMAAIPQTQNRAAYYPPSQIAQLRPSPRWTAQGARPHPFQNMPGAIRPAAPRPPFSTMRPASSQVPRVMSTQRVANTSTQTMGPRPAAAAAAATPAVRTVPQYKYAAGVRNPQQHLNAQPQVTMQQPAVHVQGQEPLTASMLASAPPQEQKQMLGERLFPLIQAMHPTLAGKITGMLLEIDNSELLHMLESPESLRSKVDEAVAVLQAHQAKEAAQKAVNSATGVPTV
# Rce1 inhib: inhibitors of yeast Ras-converting enzyme. yeast membranes, quenched prenylated peptide cleavage fluorescence. calls only. 290,000 compounds, 0.27% hits;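 active = fall in fluorescence gain of 50% or more versus controls, with final raw signal at or below 3038400; inconclusive = same 50% fall but final raw signal above 3038400; inactive = fall in fluorescence gain under 50%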;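 note: plate controls were neutral control wells for no effect and wells lacking membranes for full effect; tested at 10 µM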
# MT1-MMP act inh: MT1-MMP (human) activation inhibition. HT1080 RFP-PRO-GFP cells, GFP/RFP ratio fluorescence, overnight; percent of plate control window, DMSO zero. GFP/RFP ratio change, % at 20 µM. 360,000 compounds, 0.061% hits;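 active = GFP/RFP ratio change of at least 30% with cell ATP level not reduced by more than half and red fluorescence within 50% of control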; note: strong numbers were not always called active
#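 Assay system: HT1080 RFP-PRO-GFP cells | Dosing: 20 µM single dose, 1% DMSO | Incubation: Cells overnight before dosing, compound overnight, 37 °C, 5% CO2 | Evaluation: GFP/RFP fluorescence ratio | Control set: DMSO-only wells and HT1080 RFP-L50D-GFP cell wells as references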
# Env fusion inh: inhibitors of HIV Env-mediated cell fusion; HeLa-JRFL Env/CEM21 cell fusion, luciferase; inhibition, % at 12.3 µM; 360,000 compounds, 1.1% hits;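 active = mean replicate inhibition score of at least 50 and every replicate individually at or above 50; inconclusive = only one of the two criteria met; inactive = mean below 50 and not all replicates reaching 50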;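 note: 0% = plate neutral controls and 100% = maraviroc near 300 nM; one replicate is shown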
# MT1-MMP act inh RFP: recorded beside MT1-MMP act inh, whose call it bears; RFP signal change, %; measured here: RFP expression control read;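 0 = vehicle wells; hits needed this value within 50% of zero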
# Numbers without * were called inactive; i = inactive; u = inconclusive; x = not tested or not shown; & = joins results of further samples. A portion of the library, so the mix of outcomes need not match the whole.
# Every second line gives: PABP FP inh	MT1-MMP act inh	UUG fidelity	Rce1 inhib	eIF4H inh	CSC inhib	Env fusion inh	MT1-MMP act inh RFP
> COc1ccc2c(c1)-c1ccccc1S(=O)(=O)N(C)C2
 : x	3	-21	x	x	x	-16	3
> Cc1c(C(=O)OCC(=O)NCCc2ccc(S(N)(=O)=O)cc2)oc2ccccc12
 : x	6	-11	x	x	-9	5	-2
> CCn1c(SCC(=O)Nc2ccc(C(C)=O)cc2)nc2ccccc21
 : 0	0	3	i	-7	-19	-45	-2
> Cc1ccc(S(=O)(=O)N(CC(=O)N2CCC(C(N)=O)CC2)Cc2ccc(F)cc2)cc1
 : -9	4	4	i	3	-9	8	0
> CN(C)c1cc[n+](CC(=O)Nc2ccc(Oc3ccccc3)cc2)cc1
 : u	-7	x	i	11	-5	28	-20
> Cn1cnnc1SCC(=O)Nc1ccccc1C(=O)NC1CCCC1
 : 4	-5	-24	i	-4	x	x	-6
> COc1ccc(NC(=O)c2ccc(CNc3c(NC4CCCCC4)c(=O)c3=O)cc2)cc1OC
 : 5	2&2	-18&-12	i	-7	-13	18&-14	0&9
> CN(C)S(=O)(=O)c1cccc(NC(=O)c2cc(-c3cccs3)nn2-c2ccccc2)c1
 : 36	-2	-5	i	0	27	-7	-10
> N#Cc1ccc(N/N=C/c2ccccc2)c([N+](=O)[O-])c1
 : -12	11	x	i	4	6	-22	3
> CC(C)CC1=NC(C(F)(F)F)(C(F)(F)F)c2c(n(CC(C)C)c(=O)[nH]c2=O)N1
 : -2	0	-11	i	0	19	-3	-1
> CCOc1ccc(-c2noc(COC)n2)cc1OC
 : 0	0	-5	i	1	-7	x	3
> CC(c1ccccc1C(O)(c1ccccc1)c1ccccc1)N(C)C (configuration not stated)
 : 17	-7	x	i	6	2	5	-5
> CN(C)C1=NCC(CSC(=N)N)S1 (configuration not stated)
 : -10	3	-20	i	3	-4	-2	3
> O=C(COc1ccccc1Cl)NCCCNC(=O)c1cccnc1
 : 9	4	-15	i	3	-5	11	3
> c1ccc(-c2nc(CSc3n[nH]c(-c4cccs4)n3)cs2)cc1
 : 0	-1	2	i	-4	-6	-27	3
> O=C(Nc1ccccn1)NC1CCCCC1
 : 1	-1	x	i	2	-4	x	0
> O=C1CC(c2cc(Br)ccc2F)c2cc3c(cc2N1)CCC3 (configuration not stated)
 : -6	3	-11	i	-1	82*	x	-12
> Cc1onc(-c2c(F)cccc2Cl)c1C(=O)Nc1sc2c(c1C#N)CCC(C(C)(C)C)C2 (configuration not stated)
 : -4	-2	-22	i	-10	52	34	-4
> CCOC(=O)C1(C)NC(c2ccc(N(C)C)cc2)C2C(=O)N(c3ccc(OC)cc3)C(=O)C21 (configuration not stated)
 : -10	1	-12	i	-7	6	-19	3
> Cc1c(C(=O)Nc2ccccc2)c2ccc(C(F)(F)F)cc2n1O
 : x	5	-14	i	x	39	3	-30
> O=C(CNC(=O)c1ccccc1F)NCCCN1CCCC1=O
 : x	2	-13	i	x	3	-5	1
> CCOc1cc(/C=N/NC(=O)c2ccccc2OCc2ccc(F)cc2)ccc1O
 : x	4	-21	x	x	-4	-15	-14
> N#C/C(=N\Nc1ccc([N+](=O)[O-])cc1)C(=N)N1CCOCC1
 : -5	-4	x	i	-5	-2	-6	-4
> COc1cccc(-n2cnc3sc(-c4ccccc4)cc3c2=O)c1
 : x	3	-19	i	x	-10	-5	3
> O=C(OCC1CC(c2ccccn2)=NO1)c1ccc(Br)cc1 (configuration not stated)
 : -14	-1	-17	i	-7	-11	x	3
> O=C1NN(c2ccccc2)C(=O)/C1=C\c1coc2ccc(O)cc2c1=O
 : 17	-5	x	i	6	30	16	3
> CNC(=O)C1CC(=O)N(c2ccc(OCC(=O)NCc3ccccc3)cc2)C1 (configuration not stated)
 : 8	4	-3	i	-2	x	-5	6
> O=C(O)CNS(=O)(=O)c1ccc2[nH]c(=O)c(=O)[nH]c2c1
 : -8	5	-11	i	2	-16	-6	2
> Cc1cccc(-c2c3c(=O)n(C)c(=O)n(C)c3cn2CC2CCCO2)c1 (configuration not stated)
 : -2	5	11	i	-6	x	x	5
> Cc1cc(C(=O)Nc2ccc(Cl)cc2)on1
 : 2	9	-5	i	2	9	-11	3
> Oc1ccc(N2CCN(c3nnnn3-c3ccccc3)CC2)cc1
 : -12	3	-43	i	-6	6	12	3
> CCOC(=O)C1CCCN(S(=O)(=O)c2cc(Br)cc3c2N(C(C)=O)CC3)C1 (configuration not stated)
 : 4	-2	18	i	-7	x	1	-4
> CCNC(=S)N1CCN(CCN=CC2=C(O)CC(C)(C)CC2=O)CC1
 : 1	1	13	i	-6	-7	-5	0
> Cc1ccc(S(=O)(=O)C2(C(=O)Nc3nccs3)CC2)cc1
 : -5	3	-10	x	-15	-17	-13	1
> O=C1NC(=Nc2ccccc2)/C(=C/c2ccco2)S1
 : 8	-6	x	x	u	-1	5	-2
> COc1ccc(C2CC(=O)c3c(O)cc(O)cc3O2)c(CC=C(C)C)c1OC (configuration not stated)
 : x	1	-1	x	x	11	x	-9
> OCc1ccccc1N=Cc1cccnc1
 : -4	2	-6	i	-10	-10	1	4
> CC(C)C(=O)Nc1cc(S(=O)(=O)N2CCOCC2)ccc1N1CCCCC1
 : x	-1	-8	x	x	-18	16	0
> O=C(c1cc(-c2ccccc2)on1)N1CCN(c2ccccc2)CC1
 : 4	2	-9	i	0	63	-8	7
> O=C(Nc1ccccc1)NC1(C(=O)N2CCN(C(=O)c3ccco3)CC2)CCCCC1
 : -8	-2	-8	i	0	-1	x	-1
> COc1ccc(-c2csc(NC(=O)c3cc(C)on3)c2C#N)cc1OC
 : 1	-1	-13	i	14	18	-25	-1
> COc1ccc2cc(C(N)=O)c(=Nc3ccc(C)cc3)oc2c1
 : -9	-16	x	i	5	0	u	-11
> Fc1ccc(-c2csc(-c3ccc(C4SCCS4)cc3)n2)cc1F
 : -2	7	x	i	-2	43	-75	1
> CCOC(=O)Cn1c(-c2ccccn2)nc2ccccc21
 : 5	7	-24	i	-1	-9	x	8
> O=[N+]([O-])c1ccccc1/C=N/N1CCN(Cc2ccccc2)CC1
 : 5	5	-20	i	6	-5	-25	5
> O=C(CCC1CCCC1)Nc1ccc(OCC(=O)N2CCOCC2)cc1
 : -13	0	9	i	6	1	-61	-2
> Cc1cc(=O)oc2cc(OCC(=O)N3CCN(c4ccc(F)cc4)CC3)c(Cl)cc12
 : -2	-3	-10	i	-4	-4	-4	-1
> O=C(ON=C1CCN(S(=O)(=O)c2ccccc2)CC1)c1cccc(Cl)c1
 : 5	-5	-7	i	-2	3	-76	0
> CN(C)CCCOc1ccc(-c2ccc3nncn3c2)cn1
 : x	1	-11	x	x	x	7	3
> CCOC(=O)c1sc(N)c(C#N)c1CSc1nnc(C2CC2)n1N
 : 6	0	-31	i	-5	-8	-73	4
> O=S(=O)(c1ccc(Cl)nc1)N1CCN(Cc2ccc3c(c2)OCO3)CC1
 : -1	-5	-15	i	-4	-12	x	-1
> COc1ccc(-c2cc3ccc(OCC(C)=O)cc3oc2=O)cc1
 : 4	-3	-5	i	1	1	-60	-4
> CCn1cc(C(=O)N2CCCC(CO)(Cc3ccccc3C)C2)cn1 (configuration not stated)
 : 0	3	-1	i	-4	-8	0	6
> CN1CCN(C(=O)/C(=C/c2cn(C)c3ccccc23)NC(=O)c2ccccc2)CC1
 : 7	0	3	i	-1	-2	-6	1
> CCOC(=O)c1sc(NC(=O)C2CCC2)cc1C
 : 0	2	x	i	-13	-2	-46	3
> COc1ccccc1NC(=O)c1oc2ccccc2c1C
 : x	0	-24	x	x	x	-113	6
> O=C(COC(=O)/C=C/c1cccc([N+](=O)[O-])c1)Nc1cccnc1Cl
 : x	-3	x	x	x	-12	11	2
> O=C(Nc1nnc(C2=COCCO2)o1)c1ccc(Br)cc1
 : -4	0	-14	i	14	23	8	1
> CCN(CC)CCNC(=O)CCc1c(C)nc2c(c(C)nn2-c2ccc(C)cc2)c1C
 : -1	-8	-13	i	-1	24	3	-5
> N#Cc1c(N2CCCC2)nsc1-c1ccccc1
 : 2	-5	-9	i	8	x	x	-7

# (continued)
# Every second line gives: PABP FP inh	MT1-MMP act inh	UUG fidelity	Rce1 inhib	eIF4H inh	CSC inhib	Env fusion inh	MT1-MMP act inh RFP
> COc1cc(S(=O)(=O)Nc2cccc(C)c2)ccc1NC(=O)c1ccncc1
 : 31	1	x	i	2	44	x	-4
> CCn1c(O)c(/C=C2\C=NN=C2c2ccc(C)cc2)sc1=S
 : 5	-2	x	i	16	-8	1	-1
> CCOC(=O)C1=NNC(=O)C1
 : x	1	-18	x	x	x	-19	2
> CCn1ncc(NC(=O)Nc2cccc(C(F)(F)F)c2)c1C(N)=O
 : -6	-2	-10	i	-8	-15	-24	-4
> O=C(CN1CCCCCC1)N/N=C/c1ccc(Cl)c(Cl)c1
 : 8	1	4	i	-10	-2	8	3
> O=C(Cn1c2ccccc2c2nc3n(c(=O)c21)CCS3)Nc1ccccc1
 : x	-3	-19	i	x	-6	-2	-5
> CCCn1nnnc1NCc1ccccc1F
 : 13	0	-13	i	40	-9	5	1
> O=C(Nc1cc(S(=O)(=O)N2CCOCC2)ccc1N1CCOCC1)c1cc2c(s1)CCC2
 : 8	-7	x	i	-9	-21	11	-5
> COc1ccc(N(C(C)C(=O)N/N=C/c2cc(Br)c(C)o2)S(C)(=O)=O)cc1 (configuration not stated)
 : 0	3	x	i	0	0	27	7
> O=C(Cc1ccc(NC(=O)C2CCN(C(=O)C3CCCCC3)CC2)cc1)Nc1cccc(C(=O)N2CCCCC2)c1
 : x	-2	-23	x	x	x	15	-6
> CS(=O)(=O)N1CCC(Oc2ccccc2C(=O)NC(C2CC2)C2CC2)CC1
 : -7	4	x	i	2	-7	10	1
> O=C(COC(=O)c1ccc(Br)o1)Nc1ccc(F)cc1[N+](=O)[O-]
 : x	2	-10	x	x	-6	0	6
> O=C(CCCCCn1c(=O)[nH]c2ccsc2c1=O)N1CCCCC1
 : 5	0	-7	i	6	14	7	0
> O=C(O)c1ccc(C(=O)c2cc([N+](=O)[O-])cc([N+](=O)[O-])c2)cc1
 : x	5	-20	x	x	x	-1	3
> S=C(NCc1ccc2c(c1)OCO2)NCc1ccc2c(c1)OCO2
 : -8	3	x	i	9	2	8	4
> CCN(c1ccccc1)S(=O)(=O)c1ccc(Cl)c(NC(=O)COC(=O)c2cccc(OC)c2O)c1
 : -7	-2	x	i	-11	-17	x	-1
> Cc1nc(NS(=O)(=O)c2ccccc2)sc1C(=O)NNS(=O)(=O)c1ccccc1
 : 23	-1	-8	i	13	x	-2	3
> O=C1c2ccccc2C(=O)C1c1ccc2ccccc2n1
 : 44	-9	1	i	22	31	-492	-5
> O=[N+]([O-])c1ccc(S(=O)(=O)Nc2nnc(C3CCCCC3)s2)cc1
 : -7	3	-4	i	6	-6	-10	0
> S=C1NC[C@H](Cc2ccccc2)N1CCc1cccc2ccccc12
 : 1	3	-24	i	-16	10	14	0
> O=C1c2cnc3nc(SCc4cccc(Cl)c4)nn3c2CC2c3ccccc3CCN12 (configuration not stated)
 : 8	-8	5	i	6	18	-2	-10
> Cc1ccc(S(=O)(=O)N2CCN(C(=O)COC(=O)CSc3ccc(C)c(C)c3)CC2)c(C)c1
 : x	13	3	x	x	x	0	4
> O=C(CN1C(=O)c2ccccc2C1=O)Nc1cccc(Cl)c1
 : 2	3	-8	i	-4	-13	-3	3

# From PubChem
